Source: PubChem (SRMLSC)
H5N1 CPE = antiviral screen in MDCK cells, H5N1 avian flu. inhibition, % at 50 µM. cytopathic effect, luminescence, 72 h; active compounds read high; no value below 0 was filed and about half of the inactive calls have no number; reference of the scale not given here. 96,000 tested, 0.07% active. AID 740; in the data active = inhibition above about 25%
* hit, by the source's call. An excerpt, so the mix of outcomes need not match the whole.

What do the screens show for `COC(=O)CSc1nnc(-c2ccc(S(=O)(=O)N3CCCCC3)cc2)o1`?
H5N1 CPE: 2.6

What do the screens show for `Cc1cccc(C)c1NC(=O)CCN1C(=O)C2C3CCC(C3)C2C1=O` (stereo unspecified)?
H5N1 CPE: inactive

Results for COc1ccccc1NC(=O)C1C2C=CC(O2)C1C(=O)O (stereo unspecified) ?
H5N1 CPE: inactive

Results for CCOc1ccc(C)cc1-n1nc2ccccc2n1 ?
H5N1 CPE: inactive

What do the screens show for `Cc1cccc(/N=C/c2c(O)[nH]c3ccccc23)n1`?
H5N1 CPE: inactive

What do the screens show for `CCOc1ccccc1NC(=O)Nc1cc(OC)ccc1OC`?
H5N1 CPE: 0.7

How did O=C(COC(=O)c1ccc(Cl)c(S(=O)(=O)N2CCCC2)c1)NC1CCCC1 do in these assays?
H5N1 CPE: 0.8

Results for CNC(=O)OCc1cccc(COC(=O)NC)n1 ?
H5N1 CPE: inactive

What do the screens show for `Cc1sc2nc(SCC(=O)NCc3cccs3)[nH]c(=O)c2c1C`?
H5N1 CPE: inactive

What do the screens show for `CCOC(=O)Nc1ccc(S(=O)(=O)Nc2cc(C)on2)cc1`?
H5N1 CPE: 2.3

Results for COc1ccc(C(=O)N/C(=C\c2ccccc2)C(=O)NC(CCSC)C(=O)O)cc1 (stereo unspecified) ?
H5N1 CPE: 0.8

What do the screens show for `CC(=O)C(N=Nc1ccccc1)(Sc1nnc(-c2ccccc2)n1-c1ccccc1)C(=O)Nc1ccccc1` (stereo unspecified)?
H5N1 CPE: 1.0

What do the screens show for `CC(C)CCn1c(N2CCN(c3cccc(Cl)c3)CC2)nc2c1c(=O)[nH]c(=O)n2C`?
H5N1 CPE: inactive

Results for CC1=C(C)CC(C(=O)Nc2ccc(C(N)=O)cc2)C(C(=O)O)C1 (stereo unspecified) ?
H5N1 CPE: inactive

How did CCCCN(C(=O)NC(=O)Nc1ccccc1OCC)S(C)(=O)=O do in these assays?
H5N1 CPE: inactive

What do the screens show for `Cc1ccc(NC(=O)C2CCCN2S(=O)(=O)c2ccc(F)cc2)c(C)c1` (stereo unspecified)?
H5N1 CPE: inactive

Results for CC(=O)c1ccc(OC(=O)c2ccc(Br)o2)cc1 ?
H5N1 CPE: inactive

Results for COc1cccc(OC)c1C(=O)NNC(=O)c1cccc(COc2ccc3c(c2)CCC3)c1 ?
H5N1 CPE: inactive

Results for CCC(Oc1ccccc1)C(=O)Nc1nc2ccccc2[nH]1 (stereo unspecified) ?
H5N1 CPE: 0.4

Results for Cc1ccc(NC(=O)C(=O)NCCN2CCN(C(=O)C(c3ccccc3)c3ccccc3)CC2)cc1 ?
H5N1 CPE: 0.1

What do the screens show for `Cc1cc(NC(=O)CSc2nc3c(c(=O)n2CCc2ccccc2)SC(C)C3)no1` (stereo unspecified)?
H5N1 CPE: inactive

Results for COc1ccc(NC(=O)CSc2nnc(CNC(=O)c3ccco3)o2)c(OC)c1 ?
H5N1 CPE: inactive

What do the screens show for `O=C(NCc1ccco1)C1(c2ccc(Cl)cc2)CCCC1`?
H5N1 CPE: inactive

What do the screens show for `Cn1c(=O)c2c(nc(SCC(=O)O)n2Cc2cc3c(cc2Cl)OCO3)n(C)c1=O`?
H5N1 CPE: inactive

Results for CCOC(=O)c1c(C)c(C(=O)NCC2CCCO2)c(C)n1CC (stereo unspecified) ?
H5N1 CPE: 0.3

Results for O=C(Nc1cccc2c1CCCC2)C1CCN(C(=O)NC2CCCCC2)CC1 ?
H5N1 CPE: 0.4

How did O=C1CC(c2ccco2)CC(O)=C1C=NCCN1CCN(C2CC(=O)N(c3ccccc3)C2=O)CC1 (stereo unspecified) do in these assays?
H5N1 CPE: inactive

Results for N#C/C(=N\Nc1ccc(F)cc1)C(=N)N1CCCCC1 ?
H5N1 CPE: inactive

What do the screens show for `CN1CCN(S(=O)(=O)c2ccc(Br)s2)CC1`?
H5N1 CPE: 1.1

What do the screens show for `CC(Oc1ccc(Cl)cc1Cl)c1nc(-c2ccccn2)no1` (stereo unspecified)?
H5N1 CPE: inactive

Results for Cn1nc(-c2ccc(C(=O)Nc3cccnc3)cc2)c2ccccc2c1=O ?
H5N1 CPE: 0.4

What do the screens show for `COCCCNC(=O)C1CC(=O)OC1c1ccc(OC)c(OC)c1` (stereo unspecified)?
H5N1 CPE: 0.2

Results for COc1ccc(N2CCN(CCCNC(=O)c3cc4sccc4n3C)CC2)cc1 ?
H5N1 CPE: 1.6

How did Cc1nc(N)c(C#N)c(-c2cccnc2)c1C do in these assays?
H5N1 CPE: 0.1

How did Cn1c(=O)c2c(nc(Br)n2C)n(C)c1=O do in these assays?
H5N1 CPE: 0.8

What do the screens show for `CCn1c(SCC(=O)NCCOC)nc2sc3c(c2c1=O)CCCC3`?
H5N1 CPE: 1.2

How did CC(=NCC1CCCO1)c1c(O)n(-c2ccc(Cl)cc2)c(=O)[nH]c1=O (stereo unspecified) do in these assays?
H5N1 CPE: 0.4

What do the screens show for `CCOC(=O)Nc1ccc(S(=O)(=O)N(C)C(C)C)cc1`?
H5N1 CPE: 0.2

How did Cn1cnnc1SCc1ccc(C#N)cc1 do in these assays?
H5N1 CPE: 0.1

How did Cc1cc(C(=O)Nc2nc3c(s2)CCCC3)no1 do in these assays?
H5N1 CPE: inactive

How did CC(C)OC(=O)N(C)c1ccc(C(O)(C(F)(F)F)C(F)(F)F)cc1 do in these assays?
H5N1 CPE: 1.6

What do the screens show for `Cc1ccc(C(C)C)c(OCCNS(C)(=O)=O)c1`?
H5N1 CPE: inactive

Results for CN1C2C=C(N(CCc3c[nH]c4ccccc34)C(=O)c3ccc(Cl)cc3)CC1CC2 (stereo unspecified) ?
H5N1 CPE: inactive

What do the screens show for `CCOC(=O)NCc1ccc(Cl)c(Cl)c1`?
H5N1 CPE: 0.2

How did C=C(C)C1Cc2c(C)nn(-c3nc(C)cc(C)n3)c2C1 (stereo unspecified) do in these assays?
H5N1 CPE: 3.7

Results for C/C(=N\NC(=O)C(C)Sc1ccccc1)C(C)(C)C (stereo unspecified) ?
H5N1 CPE: inactive

What do the screens show for `CN1CC[n+]2c(CN3C(=O)c4ccccc4C3=O)csc21`?
H5N1 CPE: 1.4

What do the screens show for `Cc1ccccc1NC(=O)CN(c1ccc(F)cc1)S(C)(=O)=O`?
H5N1 CPE: 0.6

What do the screens show for `O=C(c1cccc(C(=O)N2CCN(Cc3ccccc3)CC2)c1)N1CCN(Cc2ccccc2)CC1`?
H5N1 CPE: 0.2

How did c1ccc(-c2oc3ncnc(NCCCN4CCOCC4)c3c2-c2ccccc2)cc1 do in these assays?
H5N1 CPE: inactive

How did Cc1ccc(C(=O)Nc2ccccc2C(=O)NC2CCCCC2)cc1S(=O)(=O)N1CCOCC1 do in these assays?
H5N1 CPE: 1.3

What do the screens show for `CCN(CC)c1ccc(NC(=O)CSc2nnc(N)s2)cc1C`?
H5N1 CPE: 2.0

What do the screens show for `Cn1nc(-c2ccc(N3CCOCC3)c(NS(=O)(=O)c3ccc(Cl)cc3)c2)c2ccccc2c1=O`?
H5N1 CPE: 0.6

Results for CCOc1ccc(Cn2nnc(C(=O)Nc3cc(OC)cc(OC)c3)c2N)cc1 ?
H5N1 CPE: inactive

What do the screens show for `CCOn1c(SC(C)C)nc2ccccc2c1=O`?
H5N1 CPE: 2.3

How did CC(C)n1cc(/C=C2/SC(=O)N(CC(=O)Nc3ccc4c(c3)OCO4)C2=O)c2ccccc21 do in these assays?
H5N1 CPE: 0.1

Results for CC(=O)Nc1nc(C)c(-c2csc(Nc3cccc([N+](=O)[O-])c3)n2)s1 ?
H5N1 CPE: 0.3

What do the screens show for `COc1ccc(CNC(=O)CN(C(=O)CCC(=O)Nc2ccccn2)c2ccccc2OC)cc1`?
H5N1 CPE: inactive

What do the screens show for `Cn1c(=O)c2c(nc(SCCN3CCOCC3)n2Cc2ccc(F)cc2)n(C)c1=O`?
H5N1 CPE: 1.1

What do the screens show for `O=C(CCc1nc(-c2ccccc2F)no1)NC1CCCCC1`?
H5N1 CPE: 0.0

Structures above with an NH in an aromatic ring:
What do the screens show for `Cc1cccc(/N=C/c2c(O)[nH]c3ccccc23)n1`?
H5N1 CPE: inactive

What do the screens show for `Cc1sc2nc(SCC(=O)NCc3cccs3)[nH]c(=O)c2c1C`?
H5N1 CPE: inactive

What do the screens show for `CC(C)CCn1c(N2CCN(c3cccc(Cl)c3)CC2)nc2c1c(=O)[nH]c(=O)n2C`?
H5N1 CPE: inactive

Results for CCC(Oc1ccccc1)C(=O)Nc1nc2ccccc2[nH]1 (stereo unspecified) ?
H5N1 CPE: 0.4

How did CC(=NCC1CCCO1)c1c(O)n(-c2ccc(Cl)cc2)c(=O)[nH]c1=O (stereo unspecified) do in these assays?
H5N1 CPE: 0.4

Results for CN1C2C=C(N(CCc3c[nH]c4ccccc34)C(=O)c3ccc(Cl)cc3)CC1CC2 (stereo unspecified) ?
H5N1 CPE: inactive

(further entries)
How did COc1cccc(-c2nc(-c3ccccn3)no2)c1OC do in these assays?
H5N1 CPE: 0.9

Results for CCOC(=O)COc1ccc(S(=O)(=O)Nc2cccc(SC)c2)cc1 ?
H5N1 CPE: inactive

How did COc1ccc(-c2nnc(NC(=O)c3cc(Cl)ccc3Cl)o2)cc1 do in these assays?
H5N1 CPE: 0.3

How did C/C(=N\NC(=O)c1ccc(F)cc1)c1cccc(NC(=O)c2ccco2)c1 do in these assays?
H5N1 CPE: inactive

How did CCCCNC(=O)NC1C(NC(=O)NCCCC)N(C)C(=O)N1C (stereo unspecified) do in these assays?
H5N1 CPE: inactive

What do the screens show for `CC1CCCC(C)N1C(=O)CSc1nnc(COc2ccccc2)n1-c1ccccc1` (stereo unspecified)?
H5N1 CPE: 2.0

Results for O=C1CC(c2nc3ccccc3[nH]2)CN1c1ccccc1F (stereo unspecified) ?
H5N1 CPE: 2.1

What do the screens show for `Cc1ccc2cc3cc(C(=O)NCCN4CCOCC4)oc3nc2c1`?
H5N1 CPE: 1.7

Results for CCCN1C/C(=C/c2cccc([N+](=O)[O-])c2)C(=O)/C(=C/c2cccc([N+](=O)[O-])c2)C1 ?
H5N1 CPE: 1.4

What do the screens show for `O=C(Nc1ccc(Cl)cc1)c1cc(S(=O)(=O)N2CCOCC2)cs1`?
H5N1 CPE: 0.4

How did CC12C(=O)N(n3cnnc3)C(=O)C1C1C=CC2C1 (stereo unspecified) do in these assays?
H5N1 CPE: 0.6

What do the screens show for `COc1ccc(Nc2ncccc2C(=O)O)cc1`?
H5N1 CPE: inactive

How did COCc1cc(=O)[nH]c(/N=C(\N)Nc2cccc(C)c2)n1 do in these assays?
H5N1 CPE: 0.3

How did CCOC(=O)C1CCCN(C(=O)CCn2nc(-c3ccccc3)ccc2=O)C1 (stereo unspecified) do in these assays?
H5N1 CPE: 2.2

Results for CC(=O)Nc1nc2cc3c(cc2s1)OCO3 ?
H5N1 CPE: 1.4

Ordered by heavy-atom count (rising): some entries from above
How did CCOC(=O)C1CCCN(C(=O)CCn2nc(-c3ccccc3)ccc2=O)C1 (stereo unspecified) do in these assays?
H5N1 CPE: 2.2

Results for CCCN1C/C(=C/c2cccc([N+](=O)[O-])c2)C(=O)/C(=C/c2cccc([N+](=O)[O-])c2)C1 ?
H5N1 CPE: 1.4

What do the screens show for `CC1CCCC(C)N1C(=O)CSc1nnc(COc2ccccc2)n1-c1ccccc1` (stereo unspecified)?
H5N1 CPE: 2.0

Next section
What do the screens show for `CCCn1c(SCCN2C(=O)c3ccccc3C2=O)n[nH]c1=O`?
H5N1 CPE: inactive

What do the screens show for `O=C(c1ccco1)N1C2C=CC(C2)C1(C(F)(F)F)C(F)(F)F` (stereo unspecified)?
H5N1 CPE: 0.4

What do the screens show for `CCN(CC)c1nc2ccccc2[nH]1`?
H5N1 CPE: 0.3

How did CCc1ccc(NC(=O)C2CCCCC2C(=O)O)cc1 (stereo unspecified) do in these assays?
H5N1 CPE: 0.6

Results for S=C(NN=C1C2CC3CC(C2)CC1C3)Nc1ccccc1 ?
H5N1 CPE: 0.9

How did CCN1C(=O)c2cccc3c(NC(=O)c4ccc(OC)c(OC)c4)ccc1c23 do in these assays?
H5N1 CPE: inactive

Results for C=CC[n+]1c(-c2ccc(OC)c(OC)c2)csc1NNC(=O)Nc1ccccc1 ?
H5N1 CPE: 0.2

Results for CCOc1ccc(/C=N/NC(=O)Cc2csc(Nc3cccc(C(F)(F)F)c3)n2)cc1 ?
H5N1 CPE: inactive

Results for COc1ccc(Cc2nnc(SCc3nc4ccccc4c(=O)[nH]3)n2C)cc1 ?
H5N1 CPE: inactive

Results for COc1ccc(C)cc1NC(=O)Nc1ccccc1 ?
H5N1 CPE: inactive

How did Nc1ncnc2nc(SCC(=O)N3CCN(c4ccccc4)CC3)[nH]c12 do in these assays?
H5N1 CPE: 1.2

Results for Cc1ccc(-c2cc(C(=O)N/N=C/C=C/c3ccco3)c3ccccc3n2)cc1C ?
H5N1 CPE: inactive

How did CC1(C)Cc2c(C#N)c(N)sc(=S)c2CS1 do in these assays?
H5N1 CPE: 1.8

How did CC12CC(c3ccccc3O1)N(C(=O)c1ccco1)C(=S)N2c1ccc(F)cc1 (stereo unspecified) do in these assays?
H5N1 CPE: 0.1

What do the screens show for `COc1ccc(-c2cc(C(F)(F)F)n3nc(C(=O)O)nc3n2)cc1`?
H5N1 CPE: 1.4

Results for CC(C)(C)c1cc(C(=S)N2CCN(CCO)CC2)cc(C(C)(C)C)c1O ?
H5N1 CPE: inactive

Results for CC(C)c1cc(C(=O)NC2CCCCC2)no1 ?
H5N1 CPE: 0.4

Results for Clc1ccc(OCCSc2ncccn2)cc1 ?
H5N1 CPE: inactive

How did O=C(CC1Nc2ccccc2NC1=O)NCC1COc2ccccc2O1 (stereo unspecified) do in these assays?
H5N1 CPE: inactive

How did COC(=O)c1c(NC(=O)CN2CCC(C(N)=O)CC2)c2c(C)cccc2n1C do in these assays?
H5N1 CPE: 1.4

Results for Cc1cc(C)c(O)c(-c2cc(C(=O)Nc3ccc(S(=O)(=O)N4CCOCC4)cc3)[nH]n2)c1 ?
H5N1 CPE: inactive

Results for CC(=O)NC(C)(C)C1CC=C(C)/C(=N\O)C1 (stereo unspecified) ?
H5N1 CPE: inactive

What do the screens show for `CC(Sc1nncn1C)C(=O)Nc1nnc(-c2ccccc2)s1` (stereo unspecified)?
H5N1 CPE: 2.5

What do the screens show for `CC(=O)Nc1ccc(S(=O)(=O)NCc2csc(-c3cccnc3)n2)cc1`?
H5N1 CPE: 2.9

How did COC(=O)C1CSc2[nH]c(=O)sc2C1c1ccc(O)c(OC)c1 (stereo unspecified) do in these assays?
H5N1 CPE: 0.6
